H5N1 CPE – MDCK cell protection from H5N1 avian flu. inhibition, % at 50 µM. cytopathic effect, luminescence, 72 h; stronger effect = higher value; no value below 0 was filed and about half of the inactive calls have no number; reference of the scale not given here. 0.07% of 96,000 active; in the data active means inhibition above about 25%
* marks the source's active call; other numbers are inactive results; i = inactive. The list is partial (hit frequency here may not be typical).

SMILES	H5N1 CPE
Cc1ccc2cc(C(c3nnnn3CC3CCCO3)N3CCc4ccccc4C3)c(=O)[nH]c2c1 (configuration not stated)	i
CN(C)c1nc2c(c(=O)[nH]c(=O)n2C)n1Cc1ccc(F)cc1	2.9
CCOC(=O)c1c(C)[nH]c(C)c1C(=O)CSc1nnc(-c2cc(OC)c(OC)c(OC)c2)o1	i
COc1ccc(Nc2ncnc3sc(-c4ccccc4)cc23)cc1	i
CC(C)(C)c1ccc(O)c(N)c1	i
O=C(NC1CCSC1=O)c1cccc(C(=O)NC2CCSC2=O)c1 (configuration not stated)	1.5
O=C1CCCN1CCC1CCN(C2CC(=O)N(c3ccc(Cl)cc3)C2=O)CC1 (configuration not stated)	0.4
CCC(C)NC(=O)/C(=C/c1ccco1)c1ccccc1 (configuration not stated)	i
CC(C)(C)C(=O)N1CCC(O)(CS(=O)(=O)Cc2ccccc2Cl)CC1	0.3
N#CC1=C(SCC(=O)NC23CC4CC(CC(C4)C2)C3)NC(=O)C(C#N)C12CCCCC2 (configuration not stated)	4.7
Cc1cc(Cl)ccc1OCC(=O)N1C(C)CCCC1C (configuration not stated)	4.7
O=C(Nc1ccccc1)C1Cc2ccccc2CN1C(=O)c1ccco1 (configuration not stated)	i
O=C(Cc1cccc2ccccc12)Nc1ccc2oc(-c3ccccc3)nc2c1	i
O=C(NCc1ccc(C(=O)N2CCC3(CC2)OCCO3)cc1)c1cccc(Br)c1	0.5
CC(C)(C)NC(=O)Cn1ccc(=N)c2ccccc21	i
CN(Cc1ccco1)C(=O)c1ccc(N2CCCC2=O)cc1	0.3
OCc1ccnc2c(O)cccc12	i
C/C=C/c1ccc(OCCCNC2CCCC2)c(OC)c1	i
CCOc1ccc(N=C2NC(=O)C(CC(=O)O)S2)cc1 (configuration not stated)	i
O=C(C1CCN(C2CC(=O)N(c3ccc(Cl)cc3)C2=O)CC1)N1CCOCC1 (configuration not stated)	0.8
CCn1c(C(C)NC(=O)c2cccc(C)c2)nc2ccccc21 (configuration not stated)	1.8
COCc1cc(C)nc(SCC(=O)Nc2ccc(C)c(C)c2)c1C#N	0.1
CCCSC1=C(C#N)C(c2cc(OC)ccc2OC)CC(=O)N1 (configuration not stated)	i
Cc1ccc(SCC(=O)NC(=O)NCc2ccco2)cc1C	0.1
O=C1NC2c3ccccc3C(=O)N2c2c1cnn2-c1ccccc1 (configuration not stated)	3.5
Cn1nc(C(F)(F)F)c(C(=O)Nc2ccc(F)cc2F)c1Oc1cccc(Cl)c1	i
CC(C)Cc1n[nH]c(=O)[nH]1	i
CSc1nc(N(C)NC(=O)c2ccc(F)cc2)c2ccccc2n1	i
CC(C)CN(CC(C)C)C1=N/C(=C\c2ccco2)C(=O)N1c1ccccc1	6.3
O=c1cc(-c2ccccc2)nc2nc(-c3ccccc3)[nH]n12	3.0
O=C(CNC(=O)C1CCCCC1)NC1=NCCS1	i
COc1ccccc1Cn1c(=O)c2ccccc2n2c(SCc3csc(C)n3)nnc12	0.9
Cc1cccc(OCC(=O)Nc2ccc(N3CCN(S(C)(=O)=O)CC3)cc2)c1C	0.2
CSc1ccc(C#N)cc1NC(=O)c1cccc(Cl)c1	0.1
O=C(CN(CC1CCCO1)S(=O)(=O)c1ccc(S(=O)(=O)NCC2CCCO2)cc1)Nc1ccccc1 (configuration not stated)	i
O=C(CSc1nnc(CCCO)n1-c1ccccc1)Nc1nccs1	i
CCCCn1c(SCC(=O)Nc2cccc(OC)c2)nc2ccc(N3CCOCC3)cc2c1=O	i
Cc1cc(-c2nnco2)c(C)n1-c1ccccc1	i
CCC(=O)Nc1ccc(-c2nc(-c3ccccc3)n(CC(=O)N3CCCCC3)n2)cc1	0.5
O=C(CCCSc1nc(-c2ccco2)cc(C(F)(F)F)n1)NCc1cccs1	i
Cn1nc(C(F)(F)F)c(C(=O)Nc2ccc(C(F)(F)F)cc2)c1Cl	3.8
CCOc1ccccc1Nc1nc(-c2sc(NC(=O)c3ccc([N+](=O)[O-])cc3)nc2C)cs1	i
COc1ccccc1NC(=O)Nc1ccc(Br)cn1	i
CCC(CC)C(=O)Nc1nnc(SCC(=O)N2CCN(c3ccccc3OC)CC2)s1	0.3
CCNc1nc(Oc2ccc(=O)n(C)n2)nc(N2CCOCC2)n1	0.3
Cc1cc2cc(CNC(=O)c3ccc4c(c3)OCO4)ccc2n1C	i
CCc1nc(N)c(C#N)c(-c2ccc(F)cc2)c1C	i
Cn1cc(-c2nc3ccccc3[nH]2)c2ccccc21	i
CCOC(=O)CSC(CC)C(=O)Nc1nnc(CC)s1 (configuration not stated)	0.3
O=c1c(-c2ccco2)[n+]([O-])c2ccccc2n1OCc1ccccc1F	0.0
c1ccc(-c2cn3c(n2)CCc2ccc4cccnc4c2-3)cc1	3.5
Cc1ccc(-n2ncc3c(NCc4ccco4)ncnc32)c(C)c1	i
C=CCN1CC(O)=C(c2ccccc2)C1=N	1.8
Cc1noc(COc2ccc(OCc3nc(C)no3)cc2)n1	i
O=C(O)c1cc(-c2cccs2)nc2cc3c(cc12)OCCO3	0.5
O=C(/C=C/c1ccc([N+](=O)[O-])cc1)NCc1cccnc1	0.2
CCN(CC(=O)Nc1ccc2c(c1)OCCO2)c1nc(-c2cccnc2)nc2ccccc12	i
CCCOc1ccc(S(=O)(=O)n2cc(Br)c(=O)[nH]c2=O)cc1	i
COc1cc(NC(=O)c2ccco2)c(C(=O)O)cc1OC	1.3
CCOC(=O)N1CCN(S(=O)(=O)c2ccc(OCC(=O)OC)c(C)c2)CC1	i

Next records.
SMILES	H5N1 CPE
CCOC(=O)N1CCC2(CC1)C(C#N)=C(N)Oc1c2c(C)nn1-c1cccc(Cl)c1	i
O=C(O)CCC(NS(=O)(=O)c1ccc(-c2ccccc2)cc1)C(=O)O (configuration not stated)	0.4
COc1ccc(NC(=O)CSc2nc(C)cc(C)n2)cc1	i
OCCN1CCN(C(c2cccs2)c2ccc3cccnc3c2O)CC1 (configuration not stated)	0.6
CCN(CC)CCCNC(=O)c1cn(C)c2ccc(S(=O)(=O)N(C)C)cc2c1=O	0.1
CCOC(=O)C(CC)n1cnc2c(nnn2-c2ccc(C)cc2)c1=O (configuration not stated)	i
CCOC(=O)N1CCN(CC(=O)Nc2ccc(OC)cc2)CC1	2.0
CCOC(=O)CSC(CC)C(=O)Nc1nnc(C(C)C)s1 (configuration not stated)	1.1
CCN(Cc1ccccc1)C(=O)CSc1nc(C)cc2c1C(=O)OC2	0.2
CC(C)CCN1CN(S(=O)(=O)c2cccs2)c2nc3ccccc3nc21	i
Cc1ccc(S(=O)(=O)N2CCCC2C(=O)Nc2nc3c(s2)CCCC3)cc1 (configuration not stated)	i
Cc1nc2ccccc2nc1N1CCC(C)CC1	3.2

Quoted from the listing, 3 compounds:
SMILES	H5N1 CPE
O=c1c(-c2ccco2)[n+]([O-])c2ccccc2n1OCc1ccccc1F	0.0
c1ccc(-c2cn3c(n2)CCc2ccc4cccnc4c2-3)cc1	3.5
Cc1ccc(-n2ncc3c(NCc4ccco4)ncnc32)c(C)c1	i

Further structures
SMILES	H5N1 CPE
Cc1cccc(-n2c(CCCN3C(=O)c4ccccc4C3=O)nc3ccccc3c2=O)n1	i
CCOC(=O)C1=C(CSc2nc3ccccc3s2)NC(=O)NC1c1cccc([N+](=O)[O-])c1 (configuration not stated)	0.3
Cc1ccc(NC(=O)c2oc3ccc(S(=O)(=O)N4CCOCC4)cc3c2C)cc1C	i
COc1ccc(C=O)cc1COc1ccc(F)cc1F	i
CC(=O)Nc1cc2c(cc1C(=O)c1ccccc1)OCCO2	0.9
CCCSc1nnc(NC(=O)Nc2ccc(F)cc2)s1	1.0
CCOc1ccc(OCC)c(NC(=O)CSc2nc3c(c(=O)n(C)c(=O)n3C)n2C(C)C)c1	5.4
c1ccc(-c2nnc(-c3ccccn3)nc2NC2CCCCC2)cc1	2.0
COc1ccccc1/C=N/n1c(N)c(S(=O)(=O)c2cccs2)c2nc3ccccc3nc21	i
CN(CCC(=O)Nc1ccc(Br)cc1)Cc1ccccc1	i
O=C(Nc1cccc(OC(=O)c2ccco2)c1)c1ccco1	1.9
CCN(CC)C(=O)C1CCCN(Cc2cccc(F)c2)C1 (configuration not stated)	0.4
CCSc1nnc(NC(=O)NC(CC)(C(F)(F)F)C(F)(F)F)s1	1.6
Cn1cc(CNC(=O)C2c3ccccc3Oc3ccccc32)cn1	0.2
CCc1cccc(NC(=O)c2snc3c(=O)[nH]cnc23)c1	1.0
O=C(NC1CCCCC1)c1ccc(CNc2ccccc2)o1	i
N/C(Cc1cccs1)=N\OC(=O)COc1ccc(Br)cc1	i
O=S(=O)(N1CCOCC1)n1nnc2ccccc21	0.5
Cc1cccc(-n2c(O)c(C=Nc3ccc4c(c3)OCO4)c3ccccc3c2=O)n1	i
CCOC(=O)c1c2ccc(OCC(=O)N/N=C/c3ccc(Cl)cc3)cc2n2ccccc12	i
CCOc1ccccc1NC(=O)CC1Nc2cc(C)c(C)cc2NC1=O (configuration not stated)	i
CCOc1ccc(-n2c(N)c(-c3nc4ccccc4[nH]3)sc2=S)cc1	i
COc1cccc(NC(=O)CNC(=O)c2ccccc2)c1	i
Cc1ccccc1-n1c(SCc2cc(=O)n3ccccc3n2)nc2[nH]ncc2c1=O	0.7
COc1cccc(-c2ccc(=O)n(CC(=O)Nc3ccc(C(=O)N4CCCC4)cc3)n2)c1	i
COC(=O)c1ccc(/C=C(\C#N)c2nc3ccccc3s2)cc1	i
COC(=O)CN1C(=O)CC(C)(C)S(=O)c2ccccc21 (configuration not stated)	0.0
CC(=O)c1cccc(NC(=O)c2ccc(N(C)S(C)(=O)=O)cc2)c1	i
c1ccc(-n2nnnc2OCCOc2nnnn2-c2ccccc2)cc1	1.4
CC1(C)SCC2C(=O)N3C(CSC3(C)C)C(=O)N21 (configuration not stated)	0.2
CSc1nc(C)c(CCOC(=O)c2cccc(Cl)c2)c(=O)[nH]1	i
Cc1ccc(CSc2nnc(-c3cccs3)n2C)cc1	1.8
COC(=O)C1=NN(c2ccccc2)C2(S1)SC(C(C)=O)=C(C)N2c1ccccc1 (configuration not stated)	i
CON(c1nc(Cl)nc(N(C)C)n1)S(=O)(=O)c1ccccc1Cl	i
COc1cccc(NC(=O)Cc2nnc(SCCOc3ccccc3)n2C)c1	0.6
Cc1ccc(N(CC(=O)N/N=C/c2cccs2)S(C)(=O)=O)cc1Cl	i
COc1ccc(-c2cc(-c3c(O)c(OC)c4occc4c3OC)[nH]n2)cc1OC	i
CSC(=Nc1ccccc1)c1c(O)n(C)c(=O)n(C)c1=O	i
CCN(CC(=O)N1CCOCC1)S(=O)(=O)c1ccc(C)cc1	1.1
CCC(C)c1c(O)nc(SCC(=O)c2ccccc2)[nH]c1=O (configuration not stated)	i
Cc1ccc(SCC(=O)N2CC(C)OC(C)C2)cc1 (configuration not stated)	0.8
CSc1ccc(Cn2nnc(C(=O)NCc3ccccc3)c2N)cc1	i
N/C(=N\OC(=O)CCc1ccccc1)c1ccc(Br)cc1	i
O=C(NCCCN1CCCCCC1)C1CC(=O)N(C2CCCC2)C1 (configuration not stated)	0.3
COc1ccc(Nc2cc(C(=O)NCCCN3CCN(C)CC3)c3ccccc3n2)c(OC)c1	0.1
CCSc1nc(-c2ccc(OC)cc2)cc(-c2ccc(OC)cc2)c1C#N	i
COc1ccc(N2C(=O)CCC(C(=O)NCCN3CCOCC3)C2c2ccc(OC)c(OC)c2)cc1 (configuration not stated)	1.5
C=CCOc1c2ccc(C(=O)N(CC)c3ccc(OC)cc3)cc2nn1C	0.5
O=C(O)CC1(Cc2nc(-c3cccs3)no2)CCCC1	1.2
O=C(CCCn1c(SCC(=O)c2ccc(F)cc2)nc2ccccc2c1=O)NCc1ccco1	2.0
O=C(Cn1cnc2c(nnn2Cc2ccccc2)c1=O)c1ccc(Cl)cc1	i
Cc1ccc(C(=O)Nc2ccc(N3CCOCC3)cc2)cc1	0.8
Cc1ccc(-c2nnn(CC(=O)NCc3ccccc3)n2)c(-n2cnnn2)c1	i
O=C(Nc1nc(-c2ccccn2)cs1)c1ncc(Cl)c(Cl)c1Cl	i
COc1cc(CNCCSc2nnnn2C)cc(OC)c1OC	1.6
Cc1ccccc1Nc1nc(N)nc(CN2CCN(c3ccccn3)CC2)n1	i
CCCc1cc(=O)n2[nH]c(NCc3c(Cl)cccc3Cl)nc2n1	i
COc1cccc(/C=N/N2C(=O)C3C4c5ccccc5C(c5ccccc54)C3C2=O)c1OC (configuration not stated)	0.1
CCCc1ncc(C(O)c2cccc3ccccc23)n1C (configuration not stated)	i
COc1ccc(CC(=O)NCc2ccccc2)cc1S(=O)(=O)N1CCOCC1	1.4

(list continues)
SMILES	H5N1 CPE
O=C(Oc1ccccc1)c1c(Cl)cccc1P(=O)(O)O	i
CCCNc1c(N)n(-c2ccccc2)c(=O)[nH]c1=O	i
Cc1ccc(/C=C/C(=O)Nn2cnnc2)cc1	0.6
CC(=O)Nc1cccc(NC(=O)c2c(-c3ccccc3)noc2C)c1	i
CCCc1nnc(NC(=O)CN2CCOCC2)s1	i
O=C1NCCN1Cc1ccccc1	0.7
Nc1c(C(=O)NCc2ccco2)c2nc3ccccc3nc2n1CCN1CCOCC1	1.8
CCCCSc1nnc2c(n1)[nH]c1ccccc12	i

Molecules from the list above that have a furan ring, fused or not (15):
SMILES	H5N1 CPE
CCC(C)NC(=O)/C(=C/c1ccco1)c1ccccc1 (configuration not stated)	i
O=C(Nc1ccccc1)C1Cc2ccccc2CN1C(=O)c1ccco1 (configuration not stated)	i
CN(Cc1ccco1)C(=O)c1ccc(N2CCCC2=O)cc1	0.3
Cc1ccc(SCC(=O)NC(=O)NCc2ccco2)cc1C	0.1
CC(C)CN(CC(C)C)C1=N/C(=C\c2ccco2)C(=O)N1c1ccccc1	6.3
O=C(CCCSc1nc(-c2ccco2)cc(C(F)(F)F)n1)NCc1cccs1	i
O=c1c(-c2ccco2)[n+]([O-])c2ccccc2n1OCc1ccccc1F	0.0
Cc1ccc(-n2ncc3c(NCc4ccco4)ncnc32)c(C)c1	i
COc1cc(NC(=O)c2ccco2)c(C(=O)O)cc1OC	1.3
Cc1ccc(NC(=O)c2oc3ccc(S(=O)(=O)N4CCOCC4)cc3c2C)cc1C	i
O=C(Nc1cccc(OC(=O)c2ccco2)c1)c1ccco1	1.9
O=C(NC1CCCCC1)c1ccc(CNc2ccccc2)o1	i
COc1ccc(-c2cc(-c3c(O)c(OC)c4occc4c3OC)[nH]n2)cc1OC	i
O=C(CCCn1c(SCC(=O)c2ccc(F)cc2)nc2ccccc2c1=O)NCc1ccco1	2.0
Nc1c(C(=O)NCc2ccco2)c2nc3ccccc3nc2n1CCN1CCOCC1	1.8

Compound activity (PubChem)
